# Compound activity (PubChem BioAssay)
# PV pol inh – inhibitors of poliovirus RNA polymerase binding and polymerization | P03300 | poliovirus polymerase elongation, fluorescence polarization; active compounds read low | % elongation, % (compound at 16.7 µg/mL) | hit rate 0.66% among 150,000 | AID 588519; in the data active = % elongation below about 90%; note: some results filed as inactive read as strong as hits
# Target sequence (P03300 1749-2209 limits assumed): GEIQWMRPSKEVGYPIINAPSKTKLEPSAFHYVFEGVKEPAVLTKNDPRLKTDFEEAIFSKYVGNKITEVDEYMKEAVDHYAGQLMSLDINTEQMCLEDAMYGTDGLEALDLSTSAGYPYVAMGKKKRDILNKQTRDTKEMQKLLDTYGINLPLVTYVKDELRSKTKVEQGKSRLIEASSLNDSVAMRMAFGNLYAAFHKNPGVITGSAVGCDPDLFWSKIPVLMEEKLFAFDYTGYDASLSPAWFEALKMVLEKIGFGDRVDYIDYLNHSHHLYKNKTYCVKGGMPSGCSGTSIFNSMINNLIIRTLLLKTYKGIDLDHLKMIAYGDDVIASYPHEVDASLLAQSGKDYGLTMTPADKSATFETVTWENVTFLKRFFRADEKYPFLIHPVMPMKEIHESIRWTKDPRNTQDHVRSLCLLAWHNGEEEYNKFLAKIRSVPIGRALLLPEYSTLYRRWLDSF
# MbtI inh – inhibitors of Mycobacterium tuberculosis siderophore enzyme MbtI; P9WFX0; purified MbtI enzyme, fluorescence intensity read-out; inhibition, %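 (about 17 µg/mL by stock and volumes)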; hit rate 0.89% among 100,000; AID 493033;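 active = above 50% in both replicates, above 80% if mildly self-fluorescent; inactive = the rest, strongly fluorescent compounds included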;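 note: 0% = mean of negative and 100% = mean of positive controls; one replicate is shown; some compounds called inactive have numbers as strong as hits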
# Target sequence (P9WFX0 whole entry, looked up): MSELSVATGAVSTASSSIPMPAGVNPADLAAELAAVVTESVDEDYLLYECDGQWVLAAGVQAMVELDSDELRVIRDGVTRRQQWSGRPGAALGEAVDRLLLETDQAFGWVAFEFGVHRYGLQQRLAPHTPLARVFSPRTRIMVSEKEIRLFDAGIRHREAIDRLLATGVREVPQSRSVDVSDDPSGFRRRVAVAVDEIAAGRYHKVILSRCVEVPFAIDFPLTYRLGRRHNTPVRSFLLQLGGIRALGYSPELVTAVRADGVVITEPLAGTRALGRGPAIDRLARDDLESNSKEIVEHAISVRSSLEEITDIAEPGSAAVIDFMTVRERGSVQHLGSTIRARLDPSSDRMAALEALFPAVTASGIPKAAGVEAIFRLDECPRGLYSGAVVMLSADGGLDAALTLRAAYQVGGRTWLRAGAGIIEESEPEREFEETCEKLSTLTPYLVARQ
# Mtb MenB inh – inhibitors of Mycobacterium tuberculosis MenB enzyme; P9WNP5; MenB enzyme assay, absorbance read-out; some hits fall short of the stated cut; inhibition, %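 (about 12 µg/mL by stock and volumes)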; hit rate 0.43% among 100,000;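 active = mean of two replicates above 30%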;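 note: 0% = no compound and 100% = wells with inactive enzyme; the first replicate is given; strong numbers were not always called active; inactives centre near -10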
# PV pol inh intensity – second read-out of PV pol inh, no call of its own (marks repeat the call); % elongation; measured here: total intensity read-out; formula for this scale not given here;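 total fluorescence in place of polarization; lower means less elongation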
# * = called active by the depositor; x = not tested or not shown.
# Under each structure: PV pol inh, PV pol inh intensity, MbtI inh, Mtb MenB inh
- COc1ccc(C(C#N)N2CCN(C(C#N)c3ccc(OC)c(OC)c3)CC2)cc1OC (stereo not drawn)
  102, 108, -5, 3
- COc1cccc(Nc2ncnc3nc[nH]c23)c1
  101, 101, -1, -8
- O=C(c1sc2ccccc2c1Cl)n1cccn1
  100, 107, x, -12
- N=c1oc2ccc(Br)cc2cc1-c1ccccn1
  100, 100, 3, x
- Cc1sc(NC(=O)CSc2ccccc2)c(C#N)c1C
  103, 105, 9, -9
- Cc1ccc(NS(=O)(=O)c2ccc(C)c(C(=O)OCC(=O)NCc3ccco3)c2)cc1
  102, 98, -6, -10
- C=CCNc1ncnc2cc(OC)c(OC)cc12
  100, 98, -9, -14
- S=C(NC1CC2CCC1C2)NN1C2CSC1CS2 (stereo not drawn)
  101, 104, -3, 0
- COC(=O)c1ccc2c(=O)n(C3CCCCC3C)c(=S)[nH]c2c1 (stereo not drawn)
  100, 101, 1, -23
- Cc1ccccc1CN1CCC(N2CCCCC2)CC1
  104, 105, x, 7

# Overlap with the part before: 4 entries; new compounds follow.
# Under each structure: PV pol inh, PV pol inh intensity, MbtI inh, Mtb MenB inh
- C=CCNc1ncnc2cc(OC)c(OC)cc12
  100, 98, -9, -14
- S=C(NC1CC2CCC1C2)NN1C2CSC1CS2 (stereo not drawn)
  101, 104, -3, 0
- COC(=O)c1ccc2c(=O)n(C3CCCCC3C)c(=S)[nH]c2c1 (stereo not drawn)
  100, 101, 1, -23
- Cc1ccccc1CN1CCC(N2CCCCC2)CC1
  104, 105, x, 7
- O=C(CSc1nc2c(c(=O)n1Cc1ccccc1)SCC2)N1CCCC1
  104, 108, -4, -17
- Cc1ccc2c(c1)N(CC(=O)NCCc1ccccc1)C(=O)c1cccnc1O2
  105, 107, -7, -17
- CCOC(=O)c1c(C)[nH]c(=S)c(C#N)c1-c1ccc(OC)cc1
  133, 151, x, -69
- O=C(Nc1nnc(-c2ccco2)o1)c1ccc(S(=O)(=O)N2CCCc3ccccc32)cc1
  97, 102, 9, -53
- COC(=O)c1c(NC(=O)Cc2cccs2)sc2c1CCCC2
  103, 104, 12, 39*
- Cc1ccc(C2=NN(S(C)(=O)=O)C(c3ccc4nccnc4c3)C2)cc1 (stereo not drawn)
  102, 113, -11, 5
- COc1ccc(C(=O)C(C)Sc2nc3ccccc3n2C)c(OC)c1 (stereo not drawn)
  101, 95, 8, 2
- Nn1c(-c2ccco2)n[nH]c1=S
  106, 104, 63, -19
- Cc1nn(Cc2ccccc2Cl)c2sc(C(=O)N3CCc4ccccc43)cc12
  100, 102, 3, 6
- CC(=O)O/N=C/c1ccc2c(c1)CCO2
  102, 100, 15, -4
- C/C(=N\NC(=O)c1ccc(O)cc1)c1ccc(S(=O)(=O)NCc2ccco2)cc1
  103, 105, 10, 11
- CCOC(=O)CCc1c(C)c2cc(Cl)c(OCC(N)=O)cc2oc1=O
  100, 102, 13, -33
- O=C(NCc1ccc(F)cc1)c1cc(C2CC2)on1
  100, 101, -8, 1
- CC1CCCC(C)N1C(=O)CSc1nncn1C (stereo not drawn)
  104, 102, 4, 18
- O=C1CC(=O)N(c2cccc(F)c2)C(=S)N1
  97, 102, 14, -172
- O=C1C2CCCC2=NN1c1ccccc1 (stereo not drawn)
  106, 103, 59*, -13
- CN1CCN(c2ccc(NC(=O)CCN3C(=O)CSc4ccccc43)cc2)CC1
  100, 94, 15, -4
- Cc1cccc(-c2cc3nc4c(c(NCCN(C)C)n3n2)CCC4)c1
  107, 99, 17, -40
- COc1ccc(Cl)cc1C(=O)OCC(=O)N1CCN(C(=O)COC(=O)c2cc(Cl)ccc2OC)CC1
  104, 106, -11, 8
- COc1cccc(CNS(=O)(=O)c2c(C)nc3sccn3c2=O)c1
  105, 105, -2, -3
- CCCn1c(SCc2csc(-c3ccccc3)n2)n[nH]c1=O
  100, 99, 18, -25
- CC(NCc1ccc2c(c1)OCO2)C(=O)NC1CCCCC1 (stereo not drawn)
  103, 104, -7, -24
- C=CCNC(=O)C(C)Sc1nnc2c(n1)[nH]c1ccccc12 (stereo not drawn)
  102, 103, 4, 10
- CC1CCN(c2ccc(C(N)=O)cc2NC(=O)c2ncoc2-c2ccc3ccccc3c2)CC1
  106, 102, 15, -68
- CNC(=O)Nc1cccc(C(F)(F)F)c1
  101, 104, -10, -36
- CC1CCN(c2nc3c(S(=O)(=O)c4ccccc4)nnn3c3ccccc23)CC1
  105, 98, 27, -28
- COCCCn1c(=C(C#N)C#N)s/c(=C/c2ccncc2)c1=O
  104, 110, 1, -11
- O=C(/C=C/c1ccccc1)Nc1ncn[nH]1
  103, 102, -30, -60
- CCCCSC1=C(C#N)C(=O)NC(CCC)S1 (stereo not drawn)
  100, 104, 2, 8
- CC(C)(C)NC(=O)c1cccc(S(=O)(=O)N2CCCC2)c1
  100, 104, -6, x
- Clc1ccc(CNc2ccc3c(c2)OCCO3)c(Cl)c1
  102, 107, x, -11
- O=C1CN(NC(=O)COc2ccc(Cl)cc2)C(=O)N1
  105, 107, -9, -9
- COC(=O)c1cc(C(=O)OC)n(Cc2ccc(Cl)cc2Cl)n1
  101, 104, -16, -46
- O=C1CCC(C(=O)Nc2nnc(Cc3ccccc3)s2)=NN1
  103, 106, -1, -3
- O=C(NC12CC3CC(CC(C3)C1)C2)c1ccco1
  100, 101, -10, -40
- O=C(Nc1ccc(-c2nc3ccccc3o2)cc1)c1ccc(C(=O)c2ccccc2)cc1
  104, 102, 5, 3
- CCOCc1c[nH]c(=O)[nH]c1=O
  101, 100, -12, -6
- Cc1ccc(-n2c3c4c(nc(N5CCOCC5)c(C#N)c4c(C#N)c2=S)NC2(CCCCC2)N3)cc1
  102, 111, -8, -17
- N#CCC(=O)c1ccc(Br)cc1
  101, 103, 11, -55
- CC(C)(C)c1ccc(-c2noc(-c3ccccc3)n2)cc1
  103, 100, -10, -38
- O=C(OCc1cccs1)c1cccnc1Cl
  101, 103, -2, x
- CCCCn1c(=S)[nH]c2ccccc2c1=O
  100, 98, 15, -15
- O=C(c1ccccc1S(=O)(=O)NCc1ccccc1)N1CCCC1
  102, 103, -15, -6
- COc1ccc(OCC(=O)N2CCN(c3ccccc3)CC2)cc1
  108, 112, x, -13
- CCn1c(=O)c2sccc2n2c(CCCC(=O)N3CCN(c4ccccc4)CC3)nnc12
  101, 104, 8, -1
- COc1cc2c(cc1OC)C(c1ccccc1)N(C(=O)Cn1cnnn1)CC2 (stereo not drawn)
  100, 104, -4, -5
- O=C(NCc1ccccc1)/C(=C/c1ccco1)NC(=O)c1ccco1
  104, 103, x, -20
- Cc1nc(SCC(=O)N(C)c2ccccc2)nc(C)c1C
  104, 107, 51, -6
- O=C1CCCN1CC12CC3CC(CC(C3)C1)C2
  104, 103, -3, -4
- CCOC(=O)c1ccc(OC(=O)CCCCCN=C(N)N)cc1
  97, 101, -17, 1

# The listing continues:
# Under each structure: PV pol inh, PV pol inh intensity, MbtI inh, Mtb MenB inh
- Cc1cc(C(=O)N2CCCC2)on1
  101, 104, -7, -1
- N#Cc1ccc(S(=O)(=O)N2CCNCC2)cc1
  102, 100, -3, 27*
- Cc1ccccc1C(=O)NCCc1ccc(S(N)(=O)=O)cc1
  107, 108, 11, -17
- Cc1ccc(Cc2c(C)nc(NCc3ccccc3)[nH]c2=O)cc1
  102, 104, -14, -8
- c1ccc(Cn2c(NCc3ccco3)nc3ccccc32)cc1
  100, 103, 2, -12
- Cc1ccccc1OCc1ccc(C(=O)NC(C)C)o1
  105, 101, -4, -1
- O=C(Cc1noc2ccccc12)NCCN1CCN(Cc2ccccc2)CC1
  102, 101, -24, 2
- CCOC(=O)C1=NNC2C(=O)N(CC)C(=O)C12 (stereo not drawn)
  102, 100, -4, -14
- Cc1cnc(N2CCN(NC(=S)Nc3cccnc3)CC2)c(Cl)c1
  109, 113, -7, -15
- Oc1ccc(CN2CCN(Cc3ccccc3)CC2)c2cccnc12
  100, 107, 15, -16
- O=C(/C=C/Sc1ccc(Cl)cc1)c1ccccc1
  101, 106, -10, -8
- CNC(=O)Cn1c(=O)c2cccn2c2cccnc21
  103, 103, 0, 11
- CN(C)C(=S)SCc1ccc(Cl)cc1Cl
  102, 96, -1, x
- CS(=O)(=O)NCCc1c[nH]c2ccc(Cl)cc12
  101, 103, 4, -13
- CC(C)(/C=N/N(Cc1ccccc1)c1ccccc1)CO
  108, 100, 8, 8
- COC(=O)CCS(=O)(=O)c1nc(-c2ccc(OC)c(OC)c2)cc(C(F)(F)F)n1
  99, 102, 115, 2
- CC1CN(c2ccc(C(F)(F)F)cn2)CC(C)O1 (stereo not drawn)
  101, 103, 1, x
- COc1ccc(OCC(NC(=O)Cn2nc(C)c3ccccc3c2=O)C(C)C)cc1 (stereo not drawn)
  102, 101, -18, 11
- CCn1c(O)c(N=O)n(CC)c1=S
  102, 106, -4, -24
- S=C(Nc1ccccc1)N1c2ccccc2Sc2ccccc21
  103, 100, 25, -56
- CCCN1C(=O)CCN(C(C)=O)c2ccccc21
  105, 105, x, -16
- CCCn1c(SCC(=O)c2cc(C)n(C)c2C)n[nH]c1=O
  103, 105, -1, -13
- Cc1cc(=O)c2c(=O)oc3ccccc3c2o1
  99, 103, 0, 9
- CC(C)NC(=O)CSc1ccc2c(c1)OCCO2
  106, 107, -2, -10
- CCOC(=O)c1c(CNC(=O)c2ccc(N3CCOCC3)nc2)c(C)n(C2CC2)c1C
  104, 101, -21, 10
- CCn1c(C)cc2cc(N)ccc21
  100, 102, 20, 25
- O=C(NCC1COC2(CCCC2)O1)C1CC1 (stereo not drawn)
  102, 105, -5, 0
- CN(C)C(=O)CSc1nnc(-c2ccncc2)n1C
  104, 102, -5, -4
- Cc1cc(C)c2c(n1)sc1c(=O)n(/N=C/c3cccs3)cnc12
  103, 103, 2, -19
- O=S1(=O)c2cccc3cccc(c23)N1Cc1ccccn1
  100, 104, x, -6
- CSc1nnc(-c2ccccc2NC(=O)c2ccccc2)c(=O)[nH]1
  104, 101, 2, -15
- COc1cc2c(cc1OC)n(CC(=O)NC1CCCC(C)C1C)n1c(C)cc(=O)nc21 (stereo not drawn)
  106, 98, 108, -14
- O=C(Nc1ccc(F)cc1)c1cccc(OC(=S)Nc2cccc(Br)c2)c1
  102, 104, x, -11
- CC1CCN(CN2C(=O)C3(OCCCO3)c3ccccc32)CC1
  101, 106, -7, -11
- N=C1S/C(=C\c2ccco2)C(=O)N1c1ccc(Oc2ccccc2)cc1
  101, 104, 8, -1
- CCOC(=O)c1sc2nc(CSc3nc4ccccc4c(=O)n3CCOC)[nH]c(=O)c2c1C
  101, 98, -10, 10
- Cc1ccc(S(=O)(=O)/C=C2\NC(=O)CS2)cc1
  103, 105, 22, -37
- O=C1CCCC/C1=C\Nc1ccc(Cl)cn1
  105, 108, -13, x
- CN1C(=O)C2C(C1=O)C1(C)C=CC2(C)O1 (stereo not drawn)
  x, x, 23, -2
- CN(Cn1nc(-c2ccc3c(c2)OCO3)oc1=S)C1CCCCC1
  104, 91, 92, -27
- O=C(O)c1nn(CC(=O)N2CCCCCC2)c(=O)c2ccccc12
  100, 105, 3, 9
- C=COc1ccc(N)cc1
  99, 102, 20, -24
- COc1ccc(OC)c(NC(=O)CS(=O)(=O)c2cccc3nsnc23)c1
  103, 106, 11, -14
- O=C(c1ccco1)N1CCC(C(=O)N2CCc3ccccc32)CC1
  106, 104, -8, -13
- O=S(=O)(NCCc1csc2nc(-c3ccccc3)nn12)c1ccccc1
  101, 99, 4, 8
- Nn1c(Cc2ccccc2)nc2cc(Cl)ccc2c1=O
  102, 102, 0, 3
- S=C(NCCN1CCOCC1)N1CCN(c2cccc(Cl)c2)CC1
  95, 89, 14, 7
- CCc1[nH]nc2c1C(c1cccc(OC(=O)N3CCOCC3)c1)C(C#N)=C(N)O2 (stereo not drawn)
  101, 99, 7, -15
- Cc1cc(C)nc(SCc2noc(-c3ccc(Cl)cc3)n2)n1
  100, 99, -1, -47
- Cc1ccc(NC(=O)CCS(=O)(=O)c2ccc3c(c2)n(C)c(=O)c(=O)n3C)cc1
  100, 98, 4, 5

# Next part:
# Under each structure: PV pol inh, PV pol inh intensity, MbtI inh, Mtb MenB inh
- CN(C1CCCCC1)C(c1ccc(F)cc1)c1nnnn1C1CCCCC1 (stereo not drawn)
  101, 100, -26, 2
- COc1ccc(Cl)cc1N1Cc2cc(C)c(C)cc2C1
  105, 102, 17, -6
- CCCN(CCC)CCn1cnc2c([nH]c3ccccc32)c1=O
  103, 97, 50, -15
- CCOC(=O)Oc1ccc2c(c1)C(C)=CC(C)(C)N2C(=O)OCC
  103, 105, -4, -33
- COc1ccc2c(=O)/c(=C/c3ccc4c(c3)OCO4)oc3cccc1c32
  104, 129, -6, -10
- CCOC(=O)Cc1csc(NC(=S)NC(=O)c2ccco2)n1
  99, 103, -6, -38
- Cc1nnc(NC(C)(C)CCl)s1
  104, 100, 4, x
- COC(=O)c1ccc(N2CCC(C)CC2)c(N)c1
  101, 105, 108, -6
- CCCc1c(C)nc2ccccc2c1SCC(=O)O
  98, 100, 17, -18
- Cc1onc(-c2ccccc2)c1C(=O)OCC(=O)N1CCCC1
  102, 96, -4, -18
- Cc1nn(-c2ccccc2)c2c1C(c1cccs1)N(C1CC1)C(c1ccccc1)=N2 (stereo not drawn)
  91, 116, 8, -3
- CC(C)N(C(=O)COn1nnc2ccc(S(=O)(=O)N(C)C)cc21)C(C)C
  101, 100, -5, -7
- Cc1cccc(NC(=O)CSc2cn(Cc3cccc(F)c3)c3ccccc23)c1C
  103, 104, 10, -4
- CC(NS(=O)(=O)c1cccc(Cl)c1)C(=O)N(C)C1CCN(C)CC1 (stereo not drawn)
  106, 104, -11, -36
- CC(=O)Nc1ccc(C(=O)N(CC#N)CC#N)cc1
  109, 113, x, 2
